Rce1 inh – inhibitors of yeast Ras-converting enzyme | yeast membranes, quenched prenylated peptide cleavage fluorescence | calls only | 290,000 compounds, 0.27% hits | AID 2563;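 active means fall in fluorescence gain of 50% or more versus controls, with final raw signal at or below 3038400; inconclusive means same 50% fall but final raw signal above 3038400; inactive means fall in fluorescence gain under 50%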;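 further: plate controls were neutral control wells for no effect and wells lacking membranes for full effect; tested at 10 µM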
Target sequence (Q03530 whole entry, looked up): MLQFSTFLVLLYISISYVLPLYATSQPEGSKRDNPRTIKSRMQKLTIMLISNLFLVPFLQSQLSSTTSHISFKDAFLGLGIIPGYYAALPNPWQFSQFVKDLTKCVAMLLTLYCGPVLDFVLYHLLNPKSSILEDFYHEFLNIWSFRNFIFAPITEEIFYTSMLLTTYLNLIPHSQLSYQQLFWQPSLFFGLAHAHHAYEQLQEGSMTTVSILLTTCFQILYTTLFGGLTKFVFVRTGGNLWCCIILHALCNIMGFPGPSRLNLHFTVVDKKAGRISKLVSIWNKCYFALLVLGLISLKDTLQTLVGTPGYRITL
eIF4H FP inh – inhibitors of RNA binding by human eIF4H; Q15056; eIF4H fluorescence polarization binding assay; inhibition, % at 35 µM; 290,000 compounds, 0.94% hits; AID 2012;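 active means 50% or more with normal probe brightness, or confirmed in later tests; inconclusive means above 50% with abnormal brightness, or retests that disagree; inactive means below 50% or failed in later tests; about a fifth of its hits are not listed in these tables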;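 further: calls also rest on retests at 20 µM and on dose response follow-up; 0% = protein and probe with vehicle and 100% = probe without protein; strong numbers were not always called active; many hits fall short of the cut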
CSC inhib – cancer stem cell inhibition; cancer stem cell-like cells viability, luminescence; inhibition, % at 7.5 µM; 300,000 compounds, 1.1% hits; AID 2717;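 active means mean at 75% or more and at least half the replicates too; inconclusive means mean and replicates disagree; tested in HMLE shEcad cells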;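 further: 0% = median of negative and 100% = median of positive control wells; the first replicate is given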
MT1-MMP act inh – blocks activation of human MT1-MMP. 360,000 compounds, 0.061% hits. GFP/RFP ratio change, % at 20 µM. HT1080 RFP-PRO-GFP cells, GFP/RFP ratio fluorescence, overnight; percent of plate control window, DMSO zero. AID 651647;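 active means GFP/RFP ratio change of at least 30% with cell ATP level not reduced by more than half and red fluorescence within 50% of control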; further: strong numbers were not always called active
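Assay system: HT1080 RFP-PRO-GFP cells | Dosing: 20 µM single dose, 1% DMSO | Incubation: Cells overnight before dosing, compound overnight, 37 °C, 5% CO2 | Evaluation: GFP/RFP fluorescence ratio | Control set: DMSO-only wells and HT1080 RFP-L50D-GFP cell wells as references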
UUG fidelity – alters start codon recognition fidelity in yeast; S. cerevisiae UUG-firefly luciferase reporter, luminescence/redox ratio; activity score, % at 18.7 µM; 350,000 compounds, 0.13% hits;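 active means replicate mean at a twofold rise or more, about +100% in these data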;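 further: firefly luciferase made from a UUG start codon reports start codon fidelity; reporter light over untreated wells divided by growth signal over untreated wells; some hits fall short of that in this replicate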
PABP FP inh – blocks human PABP binding to poly(A) RNA; fluorescence polarization; inhibition, % at 35 µM; 290,000 compounds, 1% hits;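 active means 50% or more with normal probe brightness, or confirmed in later tests; inconclusive means above 50% with abnormal brightness, or retests that disagree; inactive means below 50% or failed in later tests; about a fifth of its hits are not listed in these tables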;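 further: calls also rest on retests at 20 µM and on dose response follow-up; controls were probe without protein and protein plus probe with vehicle; some compounds called inactive have numbers as strong as hits; many hits fall short of the cut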
Target sequence (P11940 whole entry, looked up): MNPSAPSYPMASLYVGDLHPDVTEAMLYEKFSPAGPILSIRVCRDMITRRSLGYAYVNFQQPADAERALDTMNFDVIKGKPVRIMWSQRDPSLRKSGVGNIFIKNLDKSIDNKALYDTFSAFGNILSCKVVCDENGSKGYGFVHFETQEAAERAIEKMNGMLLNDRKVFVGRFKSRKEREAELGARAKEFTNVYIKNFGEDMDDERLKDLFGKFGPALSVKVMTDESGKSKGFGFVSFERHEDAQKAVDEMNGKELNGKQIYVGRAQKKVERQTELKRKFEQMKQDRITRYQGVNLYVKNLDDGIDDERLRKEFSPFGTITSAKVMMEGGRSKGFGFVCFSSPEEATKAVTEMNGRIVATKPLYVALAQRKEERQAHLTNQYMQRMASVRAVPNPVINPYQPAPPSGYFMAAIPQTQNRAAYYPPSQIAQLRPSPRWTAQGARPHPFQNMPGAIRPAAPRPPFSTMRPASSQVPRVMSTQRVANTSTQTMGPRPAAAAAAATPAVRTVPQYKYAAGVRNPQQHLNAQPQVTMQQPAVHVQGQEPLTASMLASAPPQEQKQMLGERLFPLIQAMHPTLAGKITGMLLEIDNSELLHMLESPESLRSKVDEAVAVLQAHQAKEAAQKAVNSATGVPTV
HIV Env fusion – HIV envelope-mediated fusion inhibition | HeLa-JRFL Env/CEM21 cell fusion, luciferase | inhibition, % at 12.3 µM | 360,000 compounds, 1.1% hits | AID 651610;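 active means mean replicate inhibition score of at least 50 and every replicate individually at or above 50; inconclusive means only one of the two criteria met; inactive means mean below 50 and not all replicates reaching 50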;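 further: 0% = plate neutral controls and 100% = maraviroc near 300 nM; one replicate is shown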
MT1-MMP act inh RFP – recorded beside MT1-MMP act inh, whose call it bears; RFP signal change, %; measured here: RFP expression control read;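 0 = vehicle wells; hits needed this value within 50% of zero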
Active calls of the source: *; i = inactive; ? = inconclusive; nt = no result given.

Screens in order – Rce1 inh, eIF4H FP inh, CSC inhib, MT1-MMP act inh, MT1-MMP act inh RFP, UUG fidelity, PABP FP inh, HIV Env fusion
> CC(/C=N/n1c(-c2ccco2)n[nH]c1=S)=C\c1ccccc1
    i, 0, 1, -2, -4, -26, -8, -4
> O=C(Nc1c(Cl)ccc2nsnc12)c1ccc([N+](=O)[O-])o1
    i, 10, 0, 6, -2, -19, 11, -299
> CC1C(=O)C(C)C(c2ccco2)NC1c1ccco1 (stereo not given)
    i, 3, 1, 1, 1, -9, 22, -18
> COc1ccc(NC(=O)CSc2nc(=O)n(CCN(C)C)c3c2CCCC3)cc1OC
    i, nt, -11, -2, -1, -11, nt, -1
> Cc1c(C(=O)NCc2cccs2)sc(=O)n1Cc1ccc(S(=O)(=O)N(C)C)cc1
    nt, nt, nt, 0, -14, -9, nt, -73
> Cc1ccc(S(=O)(=O)n2cnc3cc([N+](=O)[O-])ccc32)c(C)c1C
    i, 3, -4, 3, 1, -23, -1, nt
> COc1cc(S(=O)(=O)N(Cc2ccccc2)Cc2ccccn2)ccc1-n1cnnn1
    i, 4, -13, 0, 1, -11, -6, 3
> CC(C)(O[C@@H]1O[C@H](CO)[C@@H](O)[C@H](O)[C@H]1O)[C@H]1Cc2cc3ccc(=O)oc3cc2O1
    i, -3, -7, 0, 1, -8, 6, -4
> NC(=O)C1Cc2ccccc2CN1C(=O)c1cccc(Oc2ccccc2)c1 (stereo not given)
    i, -10, -8, 2, -1, -5, -7, 21
> CCN1CCN(Cc2nc3c(c(=O)n(C)c(=O)n3C)n2CC(=O)c2ccccc2)CC1
    i, -8, -12, -3, 3, 5, -3, -3
> O=C(CC1SC2=NCCN2C1=O)Nc1ccc(Br)cc1 (stereo not given)
    i, -4, 0, 13, 0, 6, -5, -6
> COc1ccc(NC(=O)CCC(=O)OCc2ccc([N+](=O)[O-])cc2)cc1
    i, 3, -10, -3, 0, nt, -16, 3
> COc1cc(OC)cc(C(=O)NC2CCSC2=O)c1 (stereo not given)
    i, -1, -13, -3, 2, -7, 7, -10
> O=C(CC1CCCC1)Nc1cc(C(F)(F)F)ccc1-n1cncn1
    nt, nt, 11, -2, 4, -3, nt, nt
> O=C1C(Cl)=C(NC2CCCCC2)C(=O)N1c1ccc(Cl)cc1
    i, 6, -19, 3, -3, -3, 15, -60
> Cc1occc1-c1nnc(SCC(=O)NC(=O)NC(C)C)n1N
    i, -4, -9, -1, 0, -14, 4, 32
> O=C(CN1C(=O)COc2ccc(S(=O)(=O)N3CCOCC3)cc21)NCc1ccccn1
    i, -4, -12, -6, 2, nt, 8, 14
> O=C(N/N=C/c1ccccn1)c1cc(-c2ccc3ccccc3c2)n[nH]1
    i, -3, 24, 4, 3, nt, 10, 15
> CSc1nnc(C2CCCN2)n1C (stereo not given)
    i, -3, -15, -1, 2, -19, 4, -67
> COCCNC(=O)CSc1nc2ccccc2c(=O)n1CCCC(=O)NCc1ccccc1
    i, 24, -14, 2, 6, -5, -6, -34
> COC(=O)C1CC(=O)c2ccsc2C1 (stereo not given)
    i, -8, 5, -2, 7, -14, -7, 3
> Cc1ccc(-c2noc(CN3CCN(Cc4ccccc4)CC3)n2)cc1
    i, 2, nt, -3, -1, -10, -5, 31
> O=C(CSc1ccc(F)cc1)Nc1ccc(N2CCOCC2)cc1
    i, -11, -5, 8, 1, -16, -2, -20
> O=C(C1CCN(S(=O)(=O)N2CCOCC2)CC1)N1CCc2ccccc21
    i, -5, -2, nt, nt, nt, -2, nt
> CCOC(=O)C1CCN(C(=O)N(CC)CC)CC1
    i, -2, -8, 7, 5, -7, 1, -4
> COCCCNC(=O)CCc1nnc2ccc(N3CCC(C)CC3)nn12
    i, -1, -7, 0, 1, -25, -2, 4
> S=C(NCCCN1CCOCC1)Nc1ccc(N2CCOCC2)cc1
    i, 10, nt, 0, -1, -6, -2, -6
> CCCCC[C@H]1CN(CCCC)C(=O)[C@@H]1CC(=O)NCc1ccccc1
    i, -11, -20, 0, 0, 20, -1, 3
> COC(=O)c1ccc(/C=C/C(=O)c2ccc(OC)cc2)cc1
    i, -6, nt, -1, 1, -10, 7, nt
> CC(=O)NCc1ccc(C(=O)CCl)s1
    i, 1, 21, 3, 5, 8, -5, 6
> CCN1C(=O)N[C@H](c2ccc(Br)cc2)C(C(C)=O)=C1C
    i, 6, -7, -11, 2, -27, -2, -6
> CC#CC[N+](C)(C)CCCCCCCC
    i, -5, 4, 3, 0, -1, -3, 0
> COc1ccc(NC(=O)c2sccc2SCC#N)cc1
    i, -14, -1, -2, -2, -16, -5, -128
> COc1ccccc1C(=O)C1CCCN(C(=O)c2snnc2C)C1 (stereo not given)
    i, -4, nt, -2, 0, -8, 3, 10
> O=C(CCS(=O)(=O)c1cccc2nonc12)Nc1cccc2c1CCCC2
    i, -8, -14, 1, 2, -19, -2, 18
> O=C(/C=C/c1ccc2c(c1)OCO2)c1ccc(O)cc1O
    nt, nt, nt, -16, -5, -20, nt, -64
> Cc1ccc(C2(C(=O)N3CCC(n4nc(-c5ccccc5)oc4=O)CC3)CC2)cc1
    i, -10, 4, 0, -4, 14, -3, nt
> COCCNc1nc(SCC(=O)N2CCN(c3ccccc3OC)CC2)nc2ccccc12
    i, -10, -11, 8, 1, -3, -7, 21
> O=C(c1ccccc1)c1c(-c2ccccc2)[nH]n(-c2ccccc2)c(=O)c1=O
    i, nt, -12, 4, 8, nt, nt, -1
> CC1CCN(CC(=O)Nc2ccc(S(=O)(=O)N3C(C)CCCC3C)cc2)CC1 (stereo not given)
    i, 14, 37, -1, -3, -11, 10, 6
> COC(=O)c1ccc(C2N=C(c3cccs3)CC(c3ccccc3O)N2)cc1 (stereo not given)
    i, -2, 56, -13, -33, -11, 7, 22
> O=C(NC1CCCCC1)C1CCN(S(=O)(=O)c2cccc3nonc23)CC1
    i, 3, -16, 0, 3, -29, -3, 19
> COc1cc(NC(=O)c2c(Cl)cnn2C)c(OC)cc1Cl
    i, 3, nt, -4, -1, nt, 0, -31
> Cc1cc(C)n(C(=O)CNC(=O)COc2ccccc2)n1
    nt, -5, -6, 1, 5, -12, -4, nt
> O=C(Cc1c(F)cccc1Cl)Nc1ccc(S(=O)(=O)N2CCCC2)cc1
    i, -6, -8, 3, 2, 6, 16, -25

Single records, as listed above. Values in the order: Rce1 inh	eIF4H FP inh	CSC inhib	MT1-MMP act inh	MT1-MMP act inh RFP	UUG fidelity	PABP FP inh	HIV Env fusion
Entry for CCN1C(=O)N[C@H](c2ccc(Br)cc2)C(C(C)=O)=C1C : i	6	-7	-11	2	-27	-2	-6
Entry for COc1ccccc1C(=O)C1CCCN(C(=O)c2snnc2C)C1 (stereo not given) : i	-4	nt	-2	0	-8	3	10

Following part
Screens in order – Rce1 inh, eIF4H FP inh, CSC inhib, MT1-MMP act inh, MT1-MMP act inh RFP, UUG fidelity, PABP FP inh, HIV Env fusion
> CCCCC(=O)Nc1ccc(C2C(=O)c3ccccc3C2=O)cc1
    i, nt, -3, 0, -3, nt, nt, -1
> COCCN(C(=O)CSc1nc2ccccc2c(=O)n1CCOC)c1c(N)n(Cc2ccccc2)c(=O)[nH]c1=O
    i, 0, -6, -5, -1, nt, 44, -14
> CCc1c(C)nc2cc(-c3cccs3)[nH]n2c1=O
    i, 4, nt, -19, 0, nt, 3, nt
> O=CNc1ccccc1
    nt, nt, -8, 1, 5, 2, nt, nt
> O=C(O)C(F)(F)C(NCc1ccccc1)c1ccccc1 (stereo not given)
    i, -4, -4, 0, 1, nt, 10, 0
> O=C(Cc1cc(=O)[nH][nH]1)N/N=C/c1ccccc1[N+](=O)[O-]
    i, 11, -11, 13, 5, -15, 6, 6
> COc1ccc(-c2cc(-c3ccc(Cl)cc3)n[nH]2)c(O)c1
    i, -4, 28, 6, -1, nt, 5, -100
> CCOC(=O)Cc1csc(NC(=O)CCCCCN2C(=O)c3cccc4cccc(c34)C2=O)n1
    i, nt, -9, -8, -7, 0, nt, -63
> COCC1COS(=O)(=O)NC1(C)C (stereo not given)
    i, -6, -4, 0, 4, -18, 3, -13
> COc1ccc(-c2ccccc2NC(=O)C2CCCN(Cc3ccc(C)o3)C2)cc1 (stereo not given)
    i, 4, -4, -3, -3, 6, 9, 12
> CCC1(C)CC(C(N)=S)CCO1 (stereo not given)
    i, 1, 3, 0, -3, nt, 2, 0
> COc1ccc(S(=O)(=O)N(C)CC(=O)N2CCN(c3ccccc3)CC2)cc1
    i, 6, nt, 1, 2, -8, 2, -4
> O=C(Nc1nc(-c2ccc([N+](=O)[O-])cc2)cs1)C1=COCCO1
    nt, nt, nt, 5, -5, 8, nt, -8
> Cc1ccc(-n2c(C)cc(C(=O)Cn3nc(C(=O)O)c4ccccc4c3=O)c2C)cc1
    nt, -7, 27, 4, 8, nt, 0, 4
> CCOC(=O)c1c(NC(C)=O)sc2c1CCCNC2=O
    i, 4, -8, -5, -1, 2, -9, nt
> O=S(=O)(CC(CN1CCCC1)N1CCCC1)c1ccc2ccccc2c1 (stereo not given)
    i, 4, 7, -4, 0, -5, 0, ?
> CC(C)Oc1cccc(C(=O)N/N=C/c2ccoc2)c1
    i, -1, 4, -2, 1, -21, 12, -1
> O=C(CCc1ccccc1)Nc1ccc(S(=O)(=O)N2CCCC2)cc1
    i, 4, -1, 1, 7, nt, 19, 12
> COc1ccc(-c2cc(C(=O)Nc3ccc(Br)cc3)no2)cc1
    i, -7, -8, 1, -2, 0, -24, -2
> CCN(CC)c1ccc(S(=O)(=O)N2CCOCC2)cc1NC(=O)CSc1nncs1
    i, nt, -6, 0, 0, -4, nt, nt
> O=C(NCC1CC1)c1onc(CSc2ccc(F)cc2)c1C(=O)NCC1CC1
    i, nt, -5, -3, -2, -15, nt, 17
> CC(=O)c1ccc(NC(=O)CSc2nc(C)cc(C)c2C(N)=O)cc1
    i, 13, -12, 11, -6, -1, -5, 2
> Nc1ccc(N(c2ccccc2)c2ccc(N)cc2)cc1
    i, 6, 90*, -4, -25, -5, 2, 39
> O=C(NC(=O)c1ccncc1)NC(c1ccccc1)c1ccccc1
    i, 19, -3, -6, -3, -14, 2, nt
> C[C@H](NC(=O)C1(c2ccccc2)CCN(C(=O)[C@H]2CSCN2C(=O)OC(C)(C)C)CC1)C(=O)O
    i, -3, -11, -2, 2, -11, 16, 9
> COc1ccc(-c2ccccc2)cc1NC(=O)c1cccs1
    nt, 10, 11, -8, -4, -4, -4, -6
> N#CC(C(=O)Nc1ccccc1)=C1Nc2ccccc2N1
    i, -1, 15, 6, -3, -14, 4, -87
> COc1cc(/C=C2\SC(=S)N(CCC(=O)N3CCN(C)CC3)C2=O)cc(OC)c1OC
    i, -4, 22, 7, 0, 5, -4, -29

By substructure, the compounds so far with a Cl atom (six)
Screens in order – Rce1 inh, eIF4H FP inh, CSC inhib, MT1-MMP act inh, MT1-MMP act inh RFP, UUG fidelity, PABP FP inh, HIV Env fusion
> O=C(Nc1c(Cl)ccc2nsnc12)c1ccc([N+](=O)[O-])o1
    i, 10, 0, 6, -2, -19, 11, -299
> O=C1C(Cl)=C(NC2CCCCC2)C(=O)N1c1ccc(Cl)cc1
    i, 6, -19, 3, -3, -3, 15, -60
> CC(=O)NCc1ccc(C(=O)CCl)s1
    i, 1, 21, 3, 5, 8, -5, 6
> COc1cc(NC(=O)c2c(Cl)cnn2C)c(OC)cc1Cl
    i, 3, nt, -4, -1, nt, 0, -31
> O=C(Cc1c(F)cccc1Cl)Nc1ccc(S(=O)(=O)N2CCCC2)cc1
    i, -6, -8, 3, 2, 6, 16, -25
> COc1ccc(-c2cc(-c3ccc(Cl)cc3)n[nH]2)c(O)c1
    i, -4, 28, 6, -1, nt, 5, -100

Bioassay records as filed in PubChem BioAssay.

These rows are one share of the data; the hit share may differ from the screen's.
